A1 apoptosis 2 = blocks A1, raising caspase activity; caspase activation, % (no concentration beside the values); AID 2465; MEF A1-2A-BIM cells, caspase-Glo luminescence, 3 h; percent of clofoctol response, DMSO zero; 24,000 tested, under 10 active; in the data active = caspase activation above about 5.9%;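 note: wells of about 30 µL received 50 nL stock; the first replicate is given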
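Evaluation: Caspase-3/7 activity from luminescence increase | Assay system: A1-2A-BIM mouse embryonic fibroblasts | Quantity: 2500 MEF cells/well | Medium: RPMI-1640 plus 10% FBS | Detection: Caspase-Glo 3/7 luminescence, 1 h at room temperature | Dosing: 50 nL compound per well, pinned | Timing: Cells settled overnight, compound exposure 3 h at 37 °C, 5% CO2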
* = called active by the depositor. An excerpt; rates above refer to the full screens.

SMILES	A1 apoptosis 2
C[C@@H]1CN([C@H](C)CO)C(=O)c2cccc(NC(=O)C3CC3)c2O[C@H]1CN(C)Cc1ccccc1	-0.2
Cc1noc(C)c1S(=O)(=O)N(C)C[C@H]1Oc2c(cccc2N(C)C)C(=O)N([C@@H](C)CO)C[C@H]1C	0.0
C[C@@H]1CN([C@@H](C)CO)C(=O)c2cccc(NC(=O)CCCCCC(=O)Nc3ccccc3N)c2O[C@@H]1CN(C)S(C)(=O)=O	-0.8
C[C@@H]1CCCCO[C@@H](CN(C)Cc2ccncc2)[C@@H](C)CN([C@H](C)CO)C(=O)c2cc(NC(=O)CCCN(C)C)ccc2O1	0.0
C[C@@H]1CCCCO[C@@H](CN(C)S(=O)(=O)c2cn(C)cn2)[C@@H](C)CN([C@@H](C)CO)C(=O)c2cc(NC(=O)CCC(F)(F)F)ccc2O1	-0.4
C[C@H]1CCCCO[C@@H](CN(C)Cc2ccc(C(F)(F)F)cc2)[C@@H](C)CN([C@@H](C)CO)C(=O)c2cc(NC(=O)c3ccncc3)ccc2O1	0.8
C[C@H](CO)N1C[C@H](C)[C@H](CN(C)Cc2ccncc2)Oc2ccc(NC(=O)NC3CCCCC3)cc2CC1=O	-0.6
COc1ccc(CN(C)C[C@@H]2Oc3ccc(NC(=O)Nc4ccc(F)cc4)cc3CC(=O)N([C@H](C)CO)C[C@H]2C)cc1	0.5
C[C@@H]1CN([C@@H](C)CO)C(=O)Cc2cc(NC(=O)Cc3cn(C)c4ccccc34)ccc2O[C@@H]1CN(C)C(=O)Nc1ccc(F)cc1	-0.7
O=C(CCCCCCC(=O)NN=C1CCCC1)NO	0.2
COc1ccc(S(=O)(=O)Nc2ccc3c(c2)CC(=O)N([C@@H](C)CO)C[C@H](C)[C@@H](CN(C)C(=O)NC(C)C)O3)cc1	-0.7
Cc1noc(C)c1S(=O)(=O)N(C)C[C@H]1OCCCC[C@H](C)Oc2ccc(NS(=O)(=O)c3cn(C)cn3)cc2C(=O)N([C@H](C)CO)C[C@@H]1C	-0.7
C[C@@H]1CCCCO[C@@H](CN(C)C(=O)Nc2cccc3ccccc23)[C@@H](C)CN([C@@H](C)CO)C(=O)c2cc(NC(=O)Cc3ccccc3)ccc2O1	-0.5
C[C@@H]1CN([C@@H](C)CO)C(=O)c2cccc(NC(=O)C3CC3)c2O[C@H]1CN(C)S(=O)(=O)c1cn(C)cn1	1.2
C[C@@H]1CN([C@H](C)CO)C(=O)Cc2cc(NC(=O)Nc3ccc(C(F)(F)F)cc3)ccc2O[C@H]1CN(C)C(=O)Nc1ccc(F)cc1	0.2
C[C@@H]1CCCCO[C@H](CN(C)C(=O)Nc2ccc(C(F)(F)F)cc2)[C@@H](C)CN([C@H](C)CO)C(=O)c2cc(NC(=O)Nc3cccc4ccccc34)ccc2O1	1.0
C[C@@H]1CN([C@H](C)CO)C(=O)Cc2cc(NC(=O)Cn3cnnn3)ccc2O[C@@H]1CN(C)C(=O)NC1CCCCC1	0.5
CC(C)NC(=O)Nc1ccc2c(c1)C(=O)N([C@@H](C)CO)C[C@H](C)[C@H](CN(C)C(=O)C1CCCCC1)OCCCC[C@@H](C)O2	-0.7
C[C@@H]1CN([C@H](C)CO)C(=O)c2cc(N(C)C)ccc2O[C@@H]1CN(C)C(=O)Nc1cccc2ccccc12	1.0
COC(=O)CCCCCCC(=O)N/N=C/c1cc(Br)cs1	1.1
C[C@H]1CN([C@@H](C)CO)C(=O)c2cccc(NC(=O)Nc3ccccc3)c2O[C@H]1CN(C)C(=O)Nc1ccc(F)cc1	0.3
C[C@H]1CCCCO[C@H](CN(C)Cc2ccc(C(F)(F)F)cc2)[C@@H](C)CN([C@@H](C)CO)C(=O)c2cc(NC(=O)C3CCCCC3)ccc2O1	-0.7
Cc1ccc(S(=O)(=O)Nc2ccc3c(c2)C(=O)N([C@H](C)CO)C[C@@H](C)[C@H](CN(C)C(=O)Nc2ccc4c(c2)OCO4)OCCCC[C@@H](C)O3)cc1	-1.3
CNC(=O)c1cc(Oc2ccc(NC(=O)Nc3ccc(Cl)c(C(F)(F)F)c3)cc2)ccn1	0.3
C[C@H]1CN([C@@H](C)CO)C(=O)c2cccc(NS(=O)(=O)c3ccc(F)cc3)c2O[C@@H]1CN(C)C(=O)NC1CCCCC1	1.3
COc1cc(O)cc(OC)c1/C=N/NC(=O)CCCCCCC(=O)NO	-0.1
C[C@H]1CN([C@@H](C)CO)C(=O)CCCn2nncc2CO[C@H]1CN(C)C(=O)Nc1ccccc1F	0.9
C[C@@H]1CCCCO[C@H](CN(C)Cc2ccccc2)[C@H](C)CN([C@@H](C)CO)C(=O)c2cc(NC(=O)CCC(F)(F)F)ccc2O1	1.0
C[C@H](CO)N1C[C@H](C)[C@H](CN(C)Cc2ccc(C(=O)Nc3ccccc3N)cc2)Oc2c(NC(=O)Nc3ccc(F)cc3)cccc2C1=O	-1.8
C[C@@H]1CN([C@@H](C)CO)C(=O)c2cc(NC(=O)Nc3ccc4c(c3)OCO4)ccc2O[C@H]1CN(C)S(=O)(=O)c1cccs1	1.4
C[C@@H]1CN([C@@H](C)CO)C(=O)c2cccc(NC(=O)c3nc4ccccc4s3)c2O[C@@H]1CN(C)C(=O)Nc1ccccc1	-2.3
C[C@H]1CN([C@@H](C)CO)C(=O)c2cc(NC(=O)Nc3ccc(C(F)(F)F)cc3)ccc2O[C@H]1CN(C)S(=O)(=O)c1ccc(Cl)cc1	0.4
C[C@H](CO)N1C[C@H](C)[C@H](CN(C)S(=O)(=O)c2ccc(C#N)cc2)Oc2ncc(/C=C/c3ccccc3)cc2C1=O	0.0
CC(C)Cc1ccc(CN2CC[C@@H](NC(=O)c3ccccc3)C2)cc1	0.7
C[C@@H]1CN([C@H](C)CO)C(=O)Cc2cc(NC(=O)Cc3ccccc3)ccc2O[C@H]1CN(C)CC1CCCCC1	-1.0
Cc1noc(C)c1NC(=O)Nc1ccc2c(c1)C(=O)N([C@@H](C)CO)C[C@H](C)[C@@H](CN(C)Cc1ccc3c(c1)OCO3)OCCCC[C@H](C)O2	-0.4
O=C(CCCCC(=O)N/N=C/c1ccc(Oc2ccccc2)cc1)NO	-1.2
C[C@H]1CN([C@@H](C)CO)C(=O)c2cc(NS(=O)(=O)c3ccccc3)ccc2O[C@@H]1CN(C)C(=O)NC1CCCCC1	1.4
O=C(NO)c1cccc(C(=O)N/N=C/C(Br)=C/c2ccccc2)c1	-2.9
C[C@@H]1CN([C@@H](C)CO)C(=O)c2cc(NC(=O)Cc3ccccc3)ccc2O[C@@H](C)CCCCO[C@H]1CN(C)C(=O)Nc1cccc2ccccc12	0.3
C[C@@H]1CN([C@@H](C)CO)C(=O)c2cc(NC(=O)NC3CCCCC3)ccc2O[C@@H](C)CCCCO[C@@H]1CN(C)Cc1ccc(C(F)(F)F)cc1	-0.5
COc1ccc(NC(=O)N(C)C[C@H]2Oc3c(NS(=O)(=O)c4ccc(OC)cc4)cccc3C(=O)N([C@@H](C)CO)C[C@H]2C)cc1	-0.9
CCOc1cccc(/C=N/NC(=O)c2ccccc2O)c1OCC	-0.8
C[C@@H]1CN([C@H](C)CO)C(=O)c2cc(NC(=O)Nc3ccc(C(F)(F)F)cc3)ccc2O[C@@H]1CN(C)Cc1ccccc1	-0.8
CNC[C@@H]1Oc2ccc(NC(=O)Nc3c(C)noc3C)cc2C(=O)N([C@H](C)CO)C[C@@H]1C	1.4
CNC[C@H]1Oc2c(NS(=O)(=O)c3cn(C)cn3)cccc2C(=O)N([C@@H](C)CO)C[C@H]1C	-0.1
Cc1ccc(S(=O)(=O)Nc2ccc3c(c2)CC(=O)N([C@H](C)CO)C[C@H](C)[C@H](CN(C)S(=O)(=O)c2ccccc2)O3)cc1	0.4
C[C@@H]1CN([C@H](C)CO)C(=O)c2cc(NS(C)(=O)=O)ccc2O[C@H]1CN(C)Cc1ccc(C(=O)Nc2ccccc2N)cc1	0.2

A run of entries of the results above, for reference:
SMILES	A1 apoptosis 2
C[C@@H]1CN([C@H](C)CO)C(=O)Cc2cc(NC(=O)Cc3ccccc3)ccc2O[C@H]1CN(C)CC1CCCCC1	-1.0
Cc1noc(C)c1NC(=O)Nc1ccc2c(c1)C(=O)N([C@@H](C)CO)C[C@H](C)[C@@H](CN(C)Cc1ccc3c(c1)OCO3)OCCCC[C@H](C)O2	-0.4
O=C(CCCCC(=O)N/N=C/c1ccc(Oc2ccccc2)cc1)NO	-1.2
C[C@H]1CN([C@@H](C)CO)C(=O)c2cc(NS(=O)(=O)c3ccccc3)ccc2O[C@@H]1CN(C)C(=O)NC1CCCCC1	1.4
O=C(NO)c1cccc(C(=O)N/N=C/C(Br)=C/c2ccccc2)c1	-2.9
C[C@@H]1CN([C@@H](C)CO)C(=O)c2cc(NC(=O)Cc3ccccc3)ccc2O[C@@H](C)CCCCO[C@H]1CN(C)C(=O)Nc1cccc2ccccc12	0.3
C[C@@H]1CN([C@@H](C)CO)C(=O)c2cc(NC(=O)NC3CCCCC3)ccc2O[C@@H](C)CCCCO[C@@H]1CN(C)Cc1ccc(C(F)(F)F)cc1	-0.5
COc1ccc(NC(=O)N(C)C[C@H]2Oc3c(NS(=O)(=O)c4ccc(OC)cc4)cccc3C(=O)N([C@@H](C)CO)C[C@H]2C)cc1	-0.9
CCOc1cccc(/C=N/NC(=O)c2ccccc2O)c1OCC	-0.8
C[C@@H]1CN([C@H](C)CO)C(=O)c2cc(NC(=O)Nc3ccc(C(F)(F)F)cc3)ccc2O[C@@H]1CN(C)Cc1ccccc1	-0.8
CNC[C@@H]1Oc2ccc(NC(=O)Nc3c(C)noc3C)cc2C(=O)N([C@H](C)CO)C[C@@H]1C	1.4

The list goes on:
SMILES	A1 apoptosis 2
Cc1cc(C(=O)Nc2cccc3c2O[C@H](CN(C)C(=O)Nc2cccc4ccccc24)[C@@H](C)CN([C@@H](C)CO)C3=O)n(C)n1	0.4
C[C@@H]1CCCCO[C@@H](CN(C)Cc2ccc(C(=O)O)cc2)[C@@H](C)CN([C@@H](C)CO)C(=O)c2cc(NC(=O)C3CCCCC3)ccc2O1	0.4
C[C@H](CO)N1C[C@H](C)[C@H](CN(C)C(=O)c2ccccc2)OCCCC[C@H](C)Oc2ccc(N(C)C)cc2C1=O	-1.5
C[C@@H]1CN([C@H](C)CO)C(=O)Cc2cc(NS(=O)(=O)c3cn(C)cn3)ccc2O[C@H]1CN(C)Cc1ccccc1	0.4
O=C(O)CCCCCC(=O)N/N=C/c1ccccn1	0.3
C[C@@H]1CN([C@@H](C)CO)C(=O)c2cc(NC(=O)C3CC3)ccc2O[C@H]1CN(C)S(=O)(=O)c1ccccc1	0.2
C[C@@H]1CN([C@H](C)CO)C(=O)c2cccc(NS(C)(=O)=O)c2O[C@@H]1CN(C)C(=O)Nc1cccc2ccccc12	0.3
C[C@H](CO)N1C[C@H](C)[C@@H](CN(C)C(=O)C2CCCCC2)OCCCC[C@H](C)Oc2ccc(NC(=O)c3ccccc3)cc2C1=O	1.1
CNC[C@H]1Oc2c(NC(=O)c3cc(C)nn3C)cccc2C(=O)N([C@@H](C)CO)C[C@@H]1C	-0.8
COc1ccc(C#Cc2ccc3c(c2)[C@]2(C(=O)N3)[C@H](c3ccc(OCCO)cc3)N3[C@H](c4ccccc4)[C@H](c4ccccc4)OC(=O)[C@H]3[C@@H]2C(=O)N2CCc3cc(OC)c(OC)cc3C2)cc1	-0.9
COc1ccc(NC(=O)N(C)C[C@H]2Oc3ccc(N(C)C)cc3CC(=O)N([C@@H](C)CO)C[C@H]2C)cc1	-1.0
C[C@@H]1CCCCO[C@H](CN(C)S(=O)(=O)c2cn(C)cn2)[C@H](C)CN([C@@H](C)CO)C(=O)c2cc(NC(=O)Nc3ccc4c(c3)OCO4)ccc2O1	0.8
C[C@@H]1CN([C@@H](C)CO)C(=O)c2cccc(NC(=O)Nc3ccc4c(c3)OCO4)c2O[C@H]1CN(C)C(=O)Nc1ccc2c(c1)OCO2	-1.9
C[C@@H]1CN([C@@H](C)CO)C(=O)c2cc(NC(=O)Cc3ccccc3)ccc2O[C@H]1CN(C)C	0.5
C[C@@H]1CN([C@@H](C)CO)C(=O)c2cc(NC(=O)Nc3ccc(F)cc3)ccc2O[C@H]1CN(C)C(=O)NC1CCCCC1	-1.3
C[C@H]1CN([C@@H](C)CO)C(=O)c2cccc(NC(=O)c3cnccn3)c2O[C@H]1CN(C)Cc1ccc(C(=O)Nc2ccccc2N)cc1	0.9
Cc1cccc(CN(C)C[C@H]2OCc3cn(nn3)CCCC(=O)N([C@@H](C)CO)C[C@H]2C)c1	0.1
C[C@H]1CN([C@@H](C)CO)C(=O)c2cc(NS(C)(=O)=O)ccc2O[C@@H]1CN(C)Cc1ccncc1	0.9
C[C@@H]1CN([C@@H](C)CO)C(=O)c2cc(NC(=O)NC3CCCCC3)ccc2O[C@@H](C)CCCCO[C@H]1CN(C)Cc1ccc2c(c1)OCO2	-0.9
C=CCNC(=O)[C@@H]1[C@H]2C(=O)O[C@H](c3ccccc3)[C@H](c3ccccc3)N2[C@H](c2ccc(OCCO)cc2)[C@@]12C(=O)Nc1ccc(C#CC3(O)CCCCCC3)cc12	-0.2
C[C@@H]1CN([C@@H](C)CO)C(=O)CCCn2nncc2CO[C@@H]1CN(C)C(=O)OCc1ccccc1	0.6
Cc1ccc(S(=O)(=O)Nc2ccc3c(c2)CC(=O)N([C@@H](C)CO)C[C@H](C)[C@@H](CN(C)Cc2ccc(Cl)c(Cl)c2)O3)cc1	-0.9
Cc1ccc(S(=O)(=O)N(C)C[C@H]2Oc3ccc(NC(=O)Nc4ccc(F)cc4)cc3CC(=O)N([C@@H](C)CO)C[C@H]2C)cc1	0.0
Cc1noc(C)c1NC(=O)Nc1ccc2c(c1)CC(=O)N([C@H](C)CO)C[C@H](C)[C@@H](CN(C)CC1CC1)O2	0.0
C[C@@H]1CCCCO[C@@H](CN(C)Cc2ccc(C(=O)Nc3ccccc3N)cc2)[C@@H](C)CN([C@H](C)CO)C(=O)c2cc(NC(=O)Cc3ccccc3)ccc2O1	1.0

Screens (PubChem)
